PINK1 modulator: PINK1 expression modulation | PINK1 immunofluorescence, high-content cytometry, 24 h | Potency, µM (titrated, usually from 76.6 µM), for the others: at the highest dose activation (PINK1 increase), actives largely listed as activators | actives 0.2% (n = 410,000) | AID 624263; active = well fitted activation curve with a large enough effect; inconclusive = small, poorly fitted or top-dose-only effect; inactive = flat fitted curve, though single readings scatter; cell line not stated here;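 note: potency is the fitted concentration of half-maximal effect; % of control where 0% means no effect; nearly all actives have a fitted effect of over 65% in size; a mitochondrial uncoupler was the plate control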
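A stable cell line was treated with compounds at 5 concentrations for 24 hours, with CCCP as control. PINK1 levels and mitochondrial localization were measured by immunofluorescence with mitochondrial, cell and nuclear markers after fixation, read by laser-scanning cytometry.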
Six1-Eya2 inh: inhibitors of human Six1/Eya2 interaction; activity change, % (test concentration not listed); Q15475+O00167; actives 0.56% (n = 360,000); AlphaScreen GST-Six1/His-Eya2 binding, biochemical; stronger effect = lower value; control for the full effect not named in the record; in the data active = activity change below about -65%; inconclusive = about -30% to -65%; inactive = above about -30%; note: % is set by controls: 0 for no effect and ±100 for the full control effect; compound concentration not given in the record
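GST-Six1 + His-Eya2 (5X stock: 250/500 nM); Tris pH 8.0, 300 mM NaCl, 0.05% BSA, 0.02% Tween 20; GSH donor/Ni acceptor beads; 1 h 37 °C dark; AlphaScreen readout.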
CtBP-E1A blk: CtBP/E1A binding inhibition. AlphaScreen GST-E1A/His-CtBP binding, 1536-well; stronger effect = lower value; control for the full effect not named in the record. activity change, % (no concentration beside the values). actives 0.49% (n = 340,000); in the data active means activity change below about -65%; inconclusive means about -30% to -65%; inactive means above about -30%; note: % is set by controls: 0 for no effect and ±100 for the full control effect; compound concentration not given in the record
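Protein mix (5X: 125 nM each GST-E1A, His-CtBP) was incubated with pinned compound 2 h at 37 deg C in dark, in 50 mM Tris pH 8.0 buffer with 300 mM NaCl. Glutathione donor and nickel acceptor beads followed; AlphaScreen signal read after 1 h.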
D2 potentiator: positive allosteric modulators of human D2 dopamine receptor | actives 0.23% (n = 360,000) | DiscoveRx D2 beta-arrestin cells, luminescence, 90 min; 100% = 57 uM dopamine signal | P14416 | potentiation, % (test concentration not listed); active = potentiation of 50% or more; inconclusive = 30% to 50%; inactive = 30% or less;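 note: compound concentration not given in the record; tested on top of an EC20 dose of dopamine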
Target sequence (P14416 whole entry, looked up): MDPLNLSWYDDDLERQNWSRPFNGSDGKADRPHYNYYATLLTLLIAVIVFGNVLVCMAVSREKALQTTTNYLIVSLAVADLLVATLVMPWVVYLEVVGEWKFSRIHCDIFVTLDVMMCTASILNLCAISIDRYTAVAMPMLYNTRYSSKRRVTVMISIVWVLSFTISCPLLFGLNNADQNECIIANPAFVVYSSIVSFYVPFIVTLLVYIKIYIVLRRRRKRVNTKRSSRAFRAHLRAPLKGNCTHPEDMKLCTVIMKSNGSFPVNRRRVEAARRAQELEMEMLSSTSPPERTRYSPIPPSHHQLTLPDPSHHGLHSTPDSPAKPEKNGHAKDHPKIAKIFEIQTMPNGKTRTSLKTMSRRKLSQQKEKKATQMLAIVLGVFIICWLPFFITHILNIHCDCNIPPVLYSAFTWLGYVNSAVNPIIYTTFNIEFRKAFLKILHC
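D2 cells co-treated with compound plus 50 nM dopamine (EC20) for 90 min at 37 deg C to detect potentiation. Beta-arrestin recruitment was read as enzyme-fragment luminescence after 1 h at ambient temperature. Full response was set by 57 uM dopamine.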
TRPML1 ag: agonists of human TRPML1 channel; actives 0.12% (n = 410,000); TRPML1-expressing cells, Ca2+ dye fluorescence, FDSS; host cell line not named in the record; reference of the full effect not given here; Q9GZU1; AID 624414; activation, % (concentration not given with the values); in the data active = activation above about 50%; inconclusive = about 30% to 50%; inactive = below about 30%; note: 0% is about no effect; the text of the record puts the active cut at 80%
Target sequence (Q9GZU1 whole entry, looked up): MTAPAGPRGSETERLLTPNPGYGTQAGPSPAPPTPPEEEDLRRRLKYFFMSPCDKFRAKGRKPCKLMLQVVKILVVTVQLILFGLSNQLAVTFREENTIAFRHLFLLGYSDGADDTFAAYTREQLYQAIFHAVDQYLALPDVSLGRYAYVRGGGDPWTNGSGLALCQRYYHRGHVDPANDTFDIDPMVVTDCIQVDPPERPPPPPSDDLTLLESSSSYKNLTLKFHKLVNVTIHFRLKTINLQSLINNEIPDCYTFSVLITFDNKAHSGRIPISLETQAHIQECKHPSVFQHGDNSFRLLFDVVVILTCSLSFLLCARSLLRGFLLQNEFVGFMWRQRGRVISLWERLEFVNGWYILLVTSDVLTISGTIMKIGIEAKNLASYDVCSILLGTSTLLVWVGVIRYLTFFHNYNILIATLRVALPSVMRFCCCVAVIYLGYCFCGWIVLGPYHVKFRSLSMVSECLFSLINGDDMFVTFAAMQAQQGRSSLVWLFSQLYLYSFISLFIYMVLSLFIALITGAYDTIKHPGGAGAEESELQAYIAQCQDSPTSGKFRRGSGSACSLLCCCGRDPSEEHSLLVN
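Calcium fluorescence on an FDSS kinetic reader gave the read-out. Tet-induced TRPML1-DL cells were plated overnight, dye-loaded (Ca8 with quencher, 45-90 min, room temperature, dark), then read 110 s after compound addition, and again 110 s after 4uM final 54-4 (EC80).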
D2 ag: human D2 receptor agonism in beta-arrestin assay; DiscoveRx PathHunter D2 beta-arrestin, luminescence, 90 min; 100% = 57 uM dopamine signal; P14416; activation, % (test concentration not listed); actives 0.084% (n = 360,000); in the data active = activation above about 40%; inconclusive = about 15% to 40%; inactive = below about 15%; note: compound concentration not given in the record; the text of the record calls up to 30% inactive
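DiscoveRx PathHunter D2 beta-arrestin cells (2,100/well) attached overnight, then compound-stimulated 90 min at 37 C in HBSS/10 mM HEPES/0.1% Tween-20 buffer; beta-galactosidase complementation read by luminescence after 1 h at ambient temperature. Dopamine 57 uM final (EC100) as control.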
Numbers without * were called inactive; ? = inconclusive; . = no result given; & = joins results of further samples; [ ] = another dose, or the depositor's remark.

Sequence of screens: Six1-Eya2 inh | CtBP-E1A blk | D2 potentiator | PINK1 modulator | D2 ag | TRPML1 ag
N#CCCN(Cc1cccnc1)C(=O)c1sc2cc(F)ccc2c1Cl
→ 26 | . | 1 | -1.3% | 2.7 | -0.1
CC(C)Cc1nnc(NC(=O)c2cc([N+](=O)[O-])ccc2N2CCOCC2)s1
→ -8 | -14 | -7 | -2.0% | -3.8 | 0.1
CCN1/C(=C/C(=S)Nc2ccccc2)Sc2ccccc21
→ -2 | 0 | -22 | ? | -8.8 | -0.3
OC(COc1cccc2ccccc12)CN1CCN(c2ccccn2)CC1 (configuration not stated)
→ -2 | 10 | -27 | 1.3% | 14 | 1.2
CN(CCc1ccccc1)C(=O)c1ccc(NC(=O)Cc2ccc(NC(=O)C3CCN(C(=O)C4CCCCC4)CC3)cc2)cc1
→ -4 | 2 | -3 | ? | 0.4 | 3.2
Cc1cccc(NS(=O)(=O)c2cccc(C(=O)NCc3ccccc3CN3CCOCC3)c2)c1
→ 18 | 21 | -2 | 1.2% | 0.0 | 0.3
O=C(O)CN1C(=O)C=CC1=O
→ -4 | 1 | -3 | -1.2% | 1.8 | -0.2
CC1CCN(C(=O)Cn2nnc(-c3cccs3)n2)CC1
→ 1 | 11 | 1 | 2.0% | -3.4 | -0.5
O=C(Nc1ccc(F)cc1F)c1ccc2c(=O)n3c(nc2c1)CCC3
→ ? | -24 | -30 | 2.6% | -2.5 | -0.1
O=C1C2CCCN2C(c2ccc(F)c(F)c2)N1c1cccc(Cl)c1 (configuration not stated)
→ 4 | 4 | 1 | 2.3% | -0.6 | 1.4
Cc1ccc(S(=O)(=O)N2C[C@H]3[C@H]4C(=O)N(c5ccccc5)C(=O)[C@H]4C[C@H](OC(=O)NC4CCCC4)[C@@]3(O)C2)cc1
→ -8 | 5 | -1 | 0.2% | -8.8 | -0.7
Cc1c(C(N)=O)c(-c2ccccc2)nn1-c1ccccc1
→ 3 | 0 | -16 | -0.6% | 2.3 | 1.0
CCOC(=O)C1(CC)NC(c2ccc(OC)cc2OC)C2C(=O)N(C)C(=O)C21 (configuration not stated)
→ 5 | 11 | -2 | 5.1% | -2.3 | 0.2
COc1cc(C2=Nc3ccc(Br)cc3C(c3ccccc3)N2CC(=O)NN)cc(OC)c1OC (configuration not stated)
→ ? | ? | -22 | 0.1% | -4.8 | 2.5
COc1ccc(C2c3ccc4ccccc4c3Oc3ncn(CCCN(C)C)c(=N)c32)cc1 (configuration not stated)
→ 9 | -6 | -9 | -2.2% | -1.6 | -0.4

6 entries already listed, ordered by formula weight, rising:
Sequence of screens: Six1-Eya2 inh | CtBP-E1A blk | D2 potentiator | PINK1 modulator | D2 ag | TRPML1 ag
O=C(O)CN1C(=O)C=CC1=O
→ -4 | 1 | -3 | -1.2% | 1.8 | -0.2
Cc1c(C(N)=O)c(-c2ccccc2)nn1-c1ccccc1
→ 3 | 0 | -16 | -0.6% | 2.3 | 1.0
O=C1C2CCCN2C(c2ccc(F)c(F)c2)N1c1cccc(Cl)c1 (configuration not stated)
→ 4 | 4 | 1 | 2.3% | -0.6 | 1.4
OC(COc1cccc2ccccc12)CN1CCN(c2ccccn2)CC1 (configuration not stated)
→ -2 | 10 | -27 | 1.3% | 14 | 1.2
CCOC(=O)C1(CC)NC(c2ccc(OC)cc2OC)C2C(=O)N(C)C(=O)C21 (configuration not stated)
→ 5 | 11 | -2 | 5.1% | -2.3 | 0.2
Cc1cccc(NS(=O)(=O)c2cccc(C(=O)NCc3ccccc3CN3CCOCC3)c2)c1
→ 18 | 21 | -2 | 1.2% | 0.0 | 0.3

The list continues.
Sequence of screens: Six1-Eya2 inh | CtBP-E1A blk | D2 potentiator | PINK1 modulator | D2 ag | TRPML1 ag
Cc1cc(C)c2sc(N(CCN(C)C)C(=O)CCS(=O)(=O)c3ccccc3)nc2c1
→ -23 | 17 | -30 | 0.2% | -4.2 | 0.2
CCCCn1c(N)c(N(C)C(=O)c2cn(-c3ccccc3)nc2-c2ccccc2)c(=O)[nH]c1=O
→ -1 | 1 | -2 | -2.1% | -0.4 | -0.5
CCCOc1ccc(/C=N/NC(=O)c2nnn(-c3nonc3N)c2-c2cccs2)cc1OC
→ -3 | -1 | 11 | -0.1% | 3.4 | -0.9
CCCC(C(=O)NCc1ccco1)N(C(=O)CNS(=O)(=O)c1ccccc1)c1ccccc1OC (configuration not stated)
→ -3 | -3 | -36 | 2.0% | -2.5 | 0.6
COc1ccccc1NC(=S)N(Cc1ccccn1)Cc1ccccc1Cl
→ 4 | 2 | 1 | 0.1% | -1.0 | 0.7
COc1ccc(NC(=O)/C=C/C(=O)O)c(OC)c1
→ 0 | 5 | -10 | -1.0% | -1.2 | 0.4
O=[N+]([O-])c1ccc(Cl)c(S(=O)(=O)Nc2ccc(-c3ccc(N4CCOCC4)nn3)cc2)c1
→ -20 | 5 | -3 | 2.5% | 0.3 | 0.1
O=C(O)C1Nc2c(C(F)(F)F)ccc(Cl)c2C2C=CCC12 (configuration not stated)
→ -5 | . | -6 | 4.7% | 2.9 | 0.1
CC(C)Oc1ccccc1C1CC(=O)Nc2cc3c(cc21)OCCO3 (configuration not stated)
→ -16 | -20 | -9 | 16%[38.3 µM] | -0.3 | 0.9
COC(=O)c1cc2n(n1)CCCNC2=O
→ 18 | . | -11 | -1.7% | 0.3 | -0.3
O=C1c2ccccc2C(c2nc3ccccc3[nH]2)N1c1ccccn1 (configuration not stated)
→ 2 | 3 | 1 | -0.9% | 7.3 | 0.4
COc1ccc(CCNC(=O)c2ccc(CNS(=O)(=O)c3cccc(Cl)c3)cc2)cc1OC
→ -20 | -8 | 3 | -0.2% | 3.8 | 1.7
Cc1ccc(N/N=C(\C#N)C(=O)c2ccsc2)cc1
→ -2 | . | -9 | ? | -7.7 | 0.9
Cc1cc(C)nc(SCC(=O)NC(=O)c2ccccc2O)n1
→ -2 | 1 | -27 | -0.5% | -1.3 | -0.5
Clc1cccc(Cl)c1/C=N/Nc1c(Cl)cncc1Cl
→ -7 | 9 | -2 | 1.8% | -0.5 | 2.6

Next part:
Sequence of screens: Six1-Eya2 inh | CtBP-E1A blk | D2 potentiator | PINK1 modulator | D2 ag | TRPML1 ag
CC(C(=O)Nc1ccc(N2CCOCC2)cc1)N1C(=O)NC(C)(C)C1=O (configuration not stated)
→ 0 | . | -4 | 2.7% | -4.1 | -0.8
CCC(C)Sc1nnc(CSc2nc(C)cc(C)n2)n1C (configuration not stated)
→ 8 | 1 | 4 | 1.6% | 2.4 | 0.6
Cc1ccc2oc(-c3ccccc3)c(C(=O)O)c(=O)c2c1
→ -5 | -2 | -15 | 1.2% | -5.6 | -0.6
CCOc1cc(CNC)ccc1OCC(=O)NC(C)(C)C
→ 21 | 1 | -9 | 0.6% | -6.0 | 1.2
Cc1cccc(N2C(=O)CS/C2=N\NC(=O)c2ccc(Br)cc2)c1C
→ -13 | -27 | -19 | 9.4%[38.3 µM] | -1.3 | -0.1
CC(=O)Nc1ccc(CN(C)c2c(C)nc3ccc(C(=O)N(C)Cc4ccccc4)cn23)cc1
→ 2 | 2 | -5 | -0.6% | 3.4 | -0.7
O=C(Nc1ccccc1)c1nccn1Cc1ccc(F)cc1
→ 4 | . | -6 | 0.7% | 2.4 | 1.9
Nc1cc(=O)[nH]c(SC/C=C/c2ccccc2)n1
→ 4 | -6 | 3 | 6.2% | 4.7 | -0.7
O=C(OCc1cc([N+](=O)[O-])cc2c1OCOC2)c1cccnc1SC(F)F
→ 2 | -2 | -7 | 6.5% | 4.2 | -0.3
CCOC(=O)C1(Cc2cccc(Cl)c2)CCCN(C(=O)C2CC2)C1 (configuration not stated)
→ 0 | -7 | -3 | 0.7% | 1.0 | 0.5
Cc1[nH][nH]c(=O)c1C(c1ccc(Cl)cc1)c1c(C)[nH][nH]c1=O
→ 0 | 0 | -3 | 0.6% | 1.2 | 0.6
CC(=O)c1nn(-c2ccccc2)cc1C(=O)c1cccc(Br)c1
→ 8 | . | -10 | 5.9% | -8.3 | -0.3
CC(C)(C)c1cc(C(=O)C[n+]2ccc(C(=O)NCCCO)cc2)cc(C(C)(C)C)c1O
→ 7 | 3 | -6 | -0.5% | 0.9 | 1.9
CCCCN(C(C)=O)c1ccc(S(=O)(=O)NC2=NCCCCC2)cc1NC(C)=O
→ -1 | -17 | -2 | 0.7% | 0.3 | 0.1
CC(C)Oc1ccccc1C1Nc2ccccc2C(=O)N1c1ccc2c(c1)OCCO2 (configuration not stated)
→ 2 | -7 | 6 | -0.4% | -0.6 | 2.5

Further records
Sequence of screens: Six1-Eya2 inh | CtBP-E1A blk | D2 potentiator | PINK1 modulator | D2 ag | TRPML1 ag
CSc1ccccc1C(=O)C1CCCN(C(=O)c2ccc(N3CCOCC3)cc2)C1 (configuration not stated)
→ -2 | 2 | -1 | -0.6% | 5.9 | 0.7
COC(=O)c1ccc(N2CCOCC2)c(F)c1
→ -1 | -7 | -3 | 0.6% | 3.8 | 0.6
O=C(CC(c1ccccc1)c1ccccc1)NCCOCc1ccccc1
→ 5 | 7 | -5 | 0.1% | -5.0 | -0.3
O=C(c1ccc(NS(=O)(=O)c2ccccc2)cc1)N1CCOCC1
→ 2 | 0 | 9 | 0.3% | -2.5 | -0.2
NC(=S)N/N=C/c1coc2ccc(Cl)cc2c1=O
→ 5 | . | -5 | 0.7% | -3.5 | -0.3
CCCNC(=O)C1(C)CCCN(Cc2csc(-c3ccccc3)n2)C1 (configuration not stated)
→ ? | -12 | -14 | 3.9% | -5.6 | 0.3
CCC/C=C/c1ccc(CN2C(C)C(=O)N(Cc3cn(Cc4ccco4)nn3)CCS2(=O)=O)cc1 (configuration not stated)
→ -19 | ? | . | 20% | 1.6 | .
CC1(C(=O)NCCOc2ccccc2Cl)CC1(Cl)Cl (configuration not stated)
→ 3 | 8 | -3 | -0.5% | -3.2 | 0.6
Cc1cc(C(=O)NCc2ccccc2F)cs1
→ 5 | 1 | -2 | 3.3%[38.3 µM] | -2.4 | 0.7
COc1ccc(CCC(=O)N/N=C(\C)c2ccc3c(c2)OCO3)cc1
→ -1 | 0 | 9 | -1.8% | -1.4 | 1.2
Cc1ccc(NC(=O)C2CCCN2S(=O)(=O)c2cccc3cccnc23)c(C)c1 (configuration not stated)
→ 0 | . | -11 | 2.7%&0.2% | -3.6 | -0.2&2.9
CC1=NC(=O)C(N=Nc2ccccc2)N1c1ccccc1 (configuration not stated)
→ ? | ? | -14 | 1.2% | -3.1 | -0.2
O=C(CCc1ccc(O)cc1)c1c(O)cc(O)cc1O[C@@H]1O[C@H](CO)[C@@H](O)[C@H](O)[C@H]1O
→ 0 | 4 | -7 | 0.7% | -2.5 | 0.0
COc1cccc(NC(=O)N2CCC(N3CCCCC3)CC2)c1
→ -3 | 1 | -10 | -0.2% | -1.6 | -0.6
CCNC(=O)C1(C)CCN(C(=O)c2cccc(OC(C)=O)c2C)C1 (configuration not stated)
→ 2 | 5 | 4 | 2.5% | 2.1 | -0.5
CCC1CCCCN1CC(O)COCc1cccc(OC)c1 (configuration not stated)
→ 47 | 1 | -10 | -0.6% | -3.8 | -0.5

Source: PubChem BioAssay

The order is random. Share with any hit: about 1.3%.
